# TRPV1 potentiator: HTS Assay for Compounds that Act as Potentiators of the Vanilloid Receptor 1 | Transient receptor potential cation channel subfamily V member 1 (Homo sapiens), Q8NER1 | TRPV1-expressing cells, Fluo-8 calcium influx, capsaicin EC20 potentiation; host cell line not named in the record; control for the full effect not named in the record | potentiation, % at 8.33 µM | 0.02% of 320,000 active | AID 540277, 2011; active means potentiation above 80%; inconclusive means 30% to 80%; inactive means below 30%; note: 0% is about no effect
# Target sequence (Q8NER1 whole entry, looked up): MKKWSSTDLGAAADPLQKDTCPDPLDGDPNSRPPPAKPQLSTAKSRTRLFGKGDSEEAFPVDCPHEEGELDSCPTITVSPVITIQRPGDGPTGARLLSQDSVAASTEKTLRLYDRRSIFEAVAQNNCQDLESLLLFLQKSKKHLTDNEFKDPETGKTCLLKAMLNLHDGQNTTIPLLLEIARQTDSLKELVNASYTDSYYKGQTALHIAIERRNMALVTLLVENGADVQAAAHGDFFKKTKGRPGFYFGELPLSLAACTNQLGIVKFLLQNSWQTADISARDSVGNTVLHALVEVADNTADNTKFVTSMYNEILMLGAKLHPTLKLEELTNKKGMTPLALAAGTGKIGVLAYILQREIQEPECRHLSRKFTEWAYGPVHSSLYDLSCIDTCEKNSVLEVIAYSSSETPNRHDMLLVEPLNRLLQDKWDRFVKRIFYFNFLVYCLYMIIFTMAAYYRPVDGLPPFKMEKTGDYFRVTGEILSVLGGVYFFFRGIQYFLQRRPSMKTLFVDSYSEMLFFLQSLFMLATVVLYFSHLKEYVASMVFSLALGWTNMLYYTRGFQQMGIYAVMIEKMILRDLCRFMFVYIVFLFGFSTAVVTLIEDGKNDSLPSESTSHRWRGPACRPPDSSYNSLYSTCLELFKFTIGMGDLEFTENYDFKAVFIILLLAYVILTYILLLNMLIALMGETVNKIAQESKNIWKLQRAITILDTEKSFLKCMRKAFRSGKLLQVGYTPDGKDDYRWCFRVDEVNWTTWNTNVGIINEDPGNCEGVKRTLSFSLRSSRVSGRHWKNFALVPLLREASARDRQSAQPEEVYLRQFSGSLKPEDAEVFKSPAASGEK
#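 Fluo-8 calcium influx in TRPV1-expressing cells, kinetic read (ex 480/em 520 nm). Compound added and read 3 min for agonist activity, followed by capsaicin at EC20 final and 2 min further read for enhancement.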
# Six1-Eya2 blk: qHTS Assay for Inhibitors of the Six1/Eya2 Interaction | 0.56% of 360,000 active | activity change, % (no concentration beside the values) | Homeobox protein SIX1 (Homo sapiens) + Protein phosphatase EYA2 (Homo sapiens), … | AID 651725, 2012 | AlphaScreen GST-Six1/His-Eya2 binding, biochemical; stronger effect = lower value; control for the full effect not named in the record; in the data active = activity change below about -65%; inconclusive = about -30% to -65%; inactive = above about -30%; note: % is set by controls: 0 for no effect and ±100 for the full control effect; compound concentration not given in the record
#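 AlphaScreen with GST-Six1 and His-Eya2 (5X mix: 250 nM and 500 nM), glutathione donor and nickel acceptor beads; buffer 50 mM Tris pH 8.0, 300 mM NaCl, 1 mM TCEP; 1 h at 37 C in the dark.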
# PINK1 modulator: A Quantitative High throughput Screen to Identify Chemical Modulators of PINK1 Expression | PINK1 immunofluorescence, high-content cytometry, 24 h | Potency, µM (highest dose often 76.6 µM), without a hit: at the highest dose activation (PINK1 increase), hits mostly activators | 0.2% of 410,000 active | AID 624263, 2012; active = well fitted activation curve with a large enough effect; inconclusive = small, poorly fitted or top-dose-only effect; inactive = flat fitted curve, though single readings scatter; cell line not stated here;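 note: potency is the fitted concentration of half-maximal effect; % of control where 0% means no effect; nearly all actives have a fitted effect of over 65% in size; a mitochondrial uncoupler was the plate control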
#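 Fluorescence from anti-PINK1 antibody, together with nuclear and cell stains, was scanned on a laser-scanning cytometer. Before staining, stable-line cells were incubated 24 hours with compounds at 5 concentrations; primary antibody 12 h at 10 degrees C.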
# CtBP-E1A blk: qHTS Assay for Inhibitors of the CtBP/E1A Interaction | AlphaScreen GST-E1A/His-CtBP binding, 1536-well; stronger effect = lower value; control for the full effect not named in the record | activity change, % (test concentration not listed) | 0.49% of 340,000 active | AID 651724, 2012; in the data active means activity change below about -65%; inconclusive means about -30% to -65%; inactive means above about -30%; note: % is set by controls: 0 for no effect and ±100 for the full control effect; compound concentration not given in the record
#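 In 5 uL wells, 23 nL compound meets equimolar GST-E1A and His-CtBP (5X stock 125 nM each) for 2 h, 37 °C. Beads (5X, 50 ug/mL) then 1 h, 37 °C, dark.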
# D2 agonist: Beta-Arrestin HTS for Positive Allosteric Modulators of the Human D2 Dopamine Receptor: Agonists; D(2) dopamine receptor (Homo sapiens), P14416; 0.084% of 360,000 active; DiscoveRx PathHunter D2 beta-arrestin, luminescence, 90 min; 100% = 57 uM dopamine signal; activation, % (no concentration beside the values); in the data active = activation above about 40%; inconclusive = about 15% to 40%; inactive = below about 15%; note: compound concentration not given in the record; the text of the record calls up to 30% inactive
#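 Agonist mode: compounds alone added to overnight-plated D2 PathHunter cells for 90 min at 37 C, with 57 uM final dopamine (EC100) defining full response. Beta-arrestin recruitment detected by chemiluminescent reagent, read after 1 h at ambient temperature.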
# D2 PAM: Beta-Arrestin HTS for Positive Allosteric Modulators of the Human D2 Dopamine Receptor: Potentiators; DiscoveRx D2 beta-arrestin cells, luminescence, 90 min; 100% = 57 uM dopamine signal; D(2) dopamine receptor (Homo sapiens), P14416; 0.23% of 360,000 active; potentiation, % (no concentration beside the values); active = potentiation of 50% or more; inconclusive = 30% to 50%; inactive = 30% or less;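 note: compound concentration not given in the record; tested on top of an EC20 dose of dopamine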
#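 PathHunter D2 cells, attached overnight at 37 deg C, received compound in DMSO plus dopamine at EC20 (50 nM final) for 90 min at 37 deg C. Beta-arrestin recruitment was read as luminescence after 1 h with detection reagent at ambient temperature.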
# Sfp PPTase inh: qHTS Assay for Inhibitors of Bacillus subtilis Sfp phosphopantetheinyl transferase (PPTase); Potency, µM, inactives show max response, negative = inhibition, usual class: inhibitors; 3.5% of 310,000 active; 4'-phosphopantetheinyl transferase ffp (Bacillus subtilis), Q9F4F7; Biochemical Sfp PPTase activity, qHTS; active = well fitted inhibition curve with a large enough effect; inconclusive = small, poorly fitted or top-dose-only effect, or another doubt; inactive = no such curve, though single readings can be large or run the other way;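 note: the enzyme is Sfp with the accession as filed and its product quenches rhodamine fluorescence; potency is the fitted concentration of half-maximal effect; 0% = enzyme reaction without inhibitor and -100% = no enzyme wells; top concentration of the series not given in the record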
#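 Fluorescence-quenching assay: 15 nM Sfp-PPTase preincubated 15 min at room temperature with compound, then 5 uM rhodamine-CoA and 12.5 uM BHQ-2-labelled YbbR peptide added. Fluorescence (ex 525/em 598 nm) read at start and after 30 min; difference gives rate.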
# Active calls of the source: *; ? = inconclusive; . = no result given; & = joins results of further samples; [ ] = another dose, or the depositor's remark.
SMILES	TRPV1 potentiator	Six1-Eya2 blk	PINK1 modulator	CtBP-E1A blk	D2 agonist	D2 PAM	Sfp PPTase inh
CCOC(=O)Nc1nn(-c2ccc(C)cc2)c(=O)c(C#N)c1C	17	1	-0.6%	5	2.6	-1	-8%
O=C(c1ccco1)N1CCN(Cc2ccc(Cl)cc2)CC1	.	-1	-1.1%	-1	?	15	-29%
COc1cccc(OCCCN2CCN(S(=O)(=O)c3ccc(NC(C)=O)cc3)CC2)c1	-9	-12	?	7	2.6	-1	7%
Cc1ccn2c(=O)nc(SCC(=O)Nc3ccc4c(c3)OCO4)nc2c1	-1	-17	0.6%	-12	-2.1	-6	.
N#Cc1ccccc1S(=O)(=O)N1CCN(C(=O)C2CCCCC2)CC1	.	12	0.4%	.	-0.7	-16	.
CN(C)C(=O)C(OC(=O)c1ccc2ccccc2n1)c1ccccc1 (stereo not drawn)	15	-13	0.5%	6	2.0	-2	14%
CSc1ccc(S(=O)(=O)N2CCC(C(=O)NCc3ccccn3)CC2)cc1	-2	-10	-1.2%	-14	1.5	-2	-1%
Cc1c(NC(=O)c2ccccc2NC(=O)c2ccccc2)cccc1C(=O)O	-6	8	-0.3%	-3	4.0	-6	24%
Cc1ccc(NC(=O)CSc2nc(N)c(-c3ccccc3)c(=O)[nH]2)cc1Cl	-7	-2	-0.6%	0	-4.1	-13	20%
CCCCn1c(N)c(N(CCC(C)C)C(=O)c2[nH]c(C)c(C(=O)OCC)c2C)c(=O)[nH]c1=O	8	-4	-0.9%	2	-7.6	-8	.
CCCCN(Cc1ccccc1)S(=O)(=O)c1cc2c(cc1Br)CC(C)N2C(C)=O (stereo not drawn)	.	-7	0.2%	3	-1.0	-13	.
CS(=O)(=O)Nc1ccc(C(=O)N2CCc3ccccc3C2)cc1	6	2	2.1%	8	-6.0	-7	7%
COc1ccc(CNc2cccc(C)n2)c(O)c1	-2	0	0.9%	-6	7.1	-2	4%
CCN(c1ccccc1)S(=O)(=O)c1ccc(Cl)c(NC(=O)CSc2ncn[nH]2)c1	1	-2	2.5%	-4	-1.1	-4	23%
COc1ccccc1C(=O)C1CCCN(C(=O)c2cnn(C(C)C)c2)C1 (stereo not drawn)	-3	5	0.0%	2	-0.9	-10	14%
COc1ccc(N2CCN(C(c3nnnn3C3CCCC3)C(C)C)CC2)cc1 (stereo not drawn)	-1	-3	6.4%	2	-0.8	6	23%
COc1ccc(NC(=O)c2nc3nccc(C)n3n2)cn1	1	0	-1.3%	-10	0.2	0	10%
CCn1ncc(C(=O)Nc2ccc(S(=O)(=O)N3CCCC3)cc2)c1C	-5	-18	-1.4%	-8	-2.9	7	1%
COc1cc2c(cc1OC)CN(C(C)C(=O)N1CCc3ccccc31)CC2 (stereo not drawn)	20	-5	3.6%	-1	-1.2	-35	?
COc1ccc2c(c1)c1nc3ccccc3nc1n2CC(=O)OC(C)C	?	10	?	10	-0.5	-8	-15%
CCCC(=O)N(Cc1cc2ccccc2[nH]c1=O)c1ccccc1OC	7	-1	.	8	-3.1	-13	12%
COc1cc(Br)c(CC(=O)NC2CC2)cc1OC	-4	0	2.1%	8	-1.5	-6	-1%
COCCNc1nc(C)cc(-c2cc(C(=O)NCc3ccccc3)on2)n1	4	2	0.7%	3	-0.4	-6	3%
Cc1cc(Br)ccc1OCCCCN1CCC(C)CC1	7	-4	6.8%	12	-3.1	-37	-8%
COc1ccc(NC(=O)Cc2nnc(N)s2)cc1	-1	-16	2.6%	-1	1.1	-3	6%
COC(=O)c1sc(-c2ccc(Cl)cc2)cc1NC(=O)/C=C/C(=O)O	-12	2	-2.0%	8	1.5	-6	?
Cc1cccc(NS(=O)(=O)c2c(C(=O)N3CCOCC3)c(C)n(C)c2C)c1C	13	0	-0.5%	2	-8.7	-4	3%
Nc1nc(N)nc(-c2ccc(Cl)c(Cl)c2)n1	0	3	-1.7%	3	-1.4	-3	.
O=C(O)c1ccccc1C(=O)N1CCc2c([nH]c3ccccc23)C1C(F)(F)F (stereo not drawn)	3	7	-1.9%	-1	2.6	-1	-6%
COc1ccc(-n2nc3c(c2NC(=O)c2ccc(Br)o2)CS(=O)(=O)C3)cc1	2	0	0.9%	-4	2.6	-10	-8%
C[C@@H]1COC(=O)[C@@H](CC(=O)OC(C)(C)C)C/C=C\C[C@@H](CC(=O)N(CCO)Cc2ccccc2)C(=O)N1	.	-2	0.2%	3	-2.2	.	.
CC1CC(C)CN(C(=O)Cn2c(-c3nonc3N)nc3ccccc32)C1 (stereo not drawn)	-9	3	0.1%	2	-2.4	-7	5%
CCNC(=O)NC(=O)C(C)OC(=O)c1ccc(-n2nc(SC)sc2=S)cc1 (stereo not drawn)	0	-8	0.4%	9	0.0	-3	-7%
COc1ccc(C2CC(C(F)(F)F)n3nc(C(=O)NCc4c(C)nn(C)c4C)c(Cl)c3N2)cc1 (stereo not drawn)	?	-1	4.7%[38.3 µM]	-1	5.4	22	-9%
COC(=O)C1=C(C)N(c2ccc(C)c(C)c2)/C(=C/c2cccs2)C1=O	-3	4	15%[38.3 µM]	8	-2.8	-9	3%
CCOC(=O)c1c(CN2CCCCC2)oc2ccc(OC)cc12	0&-2	-9&-22	-0.2%[38.3 µM]	-6&0	-3.7&-6.5	-8&-9	-3%&8%
CC(OC(=O)c1cnc(Cl)c(Cl)c1)C(=O)NCc1ccccc1 (stereo not drawn)	13	3	1.7%	-7	-3.2	0	.
CCCCC(=O)NC(c1ccccc1Cl)c1ccc2cccnc2c1O (stereo not drawn)	-3	-67*	3.9%	?	0.7	-1	7%
Cc1cccc(/C=C(\C#N)C(=O)Nc2ccccn2)c1	-7	-2	1.6%	-2	1.3	2	11%
CCc1cccc(C)c1NC(=O)COC(=O)c1c2c(nc3ccccc13)/C(=C\c1cccs1)CCC2	-18	0	-1.8%	5	-2.7	-11	10%
CCn1c(=O)c(C(=O)Nc2ccc(C)cc2C)c(O)c2ccccc21	19	8	4.7%	15	-2.3	18	-1%
Cc1cc(C)nc(N(C#N)S(=O)(=O)c2ccccc2)n1	-5	11	-2.9%	-2	2.7	-4	-3%
N#Cc1c(NC(=O)C2CCCO2)sc2c1CCCCC2 (stereo not drawn)	-12	3	0.8%	14	2.1	-3	10%
COc1ccc(C(c2nnnn2C2CCCCC2)N2CCN(C)CC2)c(OC)c1 (stereo not drawn)	-15	-12	-0.7%	4	-0.2	-19	11%
COc1ccccc1C(=O)NN1C(=O)C2C3C=CC(O3)C2C1=O (stereo not drawn)	-21	3	-0.6%	-4	-1.4	-8	56µM*
COc1ccccc1C1c2c(C)nn(-c3ccccc3)c2NC(=O)C1NC(=O)c1ccccc1 (stereo not drawn)	7	2	2.9%	-4	0.1	1	7%
CC(C)NC(=O)CSc1c2c(nc3ccccc13)CCCC2	-4	-2	1.5%	7	2.3	-2	0%
CC(Oc1cccc(Cl)c1)C(=O)Nc1ccccc1N1CCCC1 (stereo not drawn)	-40	-22	?	-15	0.9	-6	.
O=C(Nc1ccc(S(=O)(=O)Nc2cnc3ccccc3n2)cc1)c1ccc(Cl)c([N+](=O)[O-])c1	28	-7	7.1%	.	8.4	10	31%[activator]
CCOc1ccc(/C=C2/SC(=S)N(C(C(=O)O)c3ccccc3)C2=O)cc1OCC (stereo not drawn)	?	8	0.8%	-19	-5.8	-16	56µM*
COc1ccc(S(=O)(=O)N2CCN(C)CC2)cc1C(=O)N1CCCCC1	-1	4	-0.6%	14	-6.6	-4	36%[activator]
NS(=O)(=O)c1ccc(CCNC(=O)CNC(=O)c2ccc(F)cc2)cc1	1	15	-0.9%	5	-1.3	-7	5%
CN(CC(=O)Nc1ccccc1Cl)CC(=O)Nc1sc2c(c1C(N)=O)CCC2	2	8	-2.6%	26	5.9	-65	.
COc1ccc(NC(=O)CN(C)CCOc2ccc(Cl)cc2)cc1OC	-12	-1	-0.7%	-2	3.1	-15	-24%
O=C(CSc1ncc(S(=O)(=O)c2ccccc2)c(=O)[nH]1)Nc1ccccc1Cl	21	-1	0.7%	4	0.1	-3	26%
COc1ccc(OC)c(NS(=O)(=O)c2ccc(Cl)nc2)c1	2	-23	-0.8%	29	-1.2	-18	20%
O=C(c1ccc2c(c1)OCO2)N1CCNc2ccccc2C1	-6	-1	-1.3%	-2	-3.7	-10	3%
Cc1c(C(=O)N(CCc2ccccc2)Cc2ccccc2)cccc1[N+](=O)[O-]	-10	-18	2.2%	-5	-6.6	-6	0%
O=C(NCCc1ccccc1F)C1CC(=O)N(c2ccccc2)C1 (stereo not drawn)	-2	2	-1.3%	2	-3.4	-4	12%
Cn1c(SCC#N)nnc1-c1cnccn1	20	0	1.8%	8	-1.4	-1	9%
Cc1ccc(Nc2cc(Cl)nc(N)n2)c([N+](=O)[O-])c1	.	?	-0.6%	?	4.3	5	.
COc1ccc(CNC(=O)CSc2nnc3c(n2)[nH]c2ccc(F)cc23)cc1	4	7	-0.7%	1	-5.7	-6	-22%

# Part of the list above, set out differently:
# Second line of a record – TRPV1 potentiator, Six1-Eya2 blk, PINK1 modulator, CtBP-E1A blk, D2 agonist, D2 PAM, Sfp PPTase inh
O=C(c1ccc2c(c1)OCO2)N1CCNc2ccccc2C1
 : -6, -1, -1.3%, -2, -3.7, -10, 3%
Cc1c(C(=O)N(CCc2ccccc2)Cc2ccccc2)cccc1[N+](=O)[O-]
 : -10, -18, 2.2%, -5, -6.6, -6, 0%
O=C(NCCc1ccccc1F)C1CC(=O)N(c2ccccc2)C1 (stereo not drawn)
 : -2, 2, -1.3%, 2, -3.4, -4, 12%

# Screening results from PubChem BioAssay.
